StopGo RLuc: Primary qHTS Assay for Foot and Mouth Disease Virus Antivirals against NCGC Sytravon and CBC Compound Libraries: Renilla Luciferase Signal; HEK cells with a luciferase reporter of 2A StopGo recoding; Potency, µM (series often up to 57.5 µM), inactives show at the highest dose signal change, negative = less light; 120,000 tested, 0.32% active; AID 1745857, 2022; active means well fitted falling curve with a large enough effect; inconclusive means small, poorly fitted or top-dose-only effect; inactive means no such curve, though single readings can be large or run the other way; further: nearly all actives have a fitted effect of over 55% in size; overnight with compound
2A firefly: Primary qHTS Assay for Foot and Mouth Disease Virus Antivirals against NCGC Sytravon and CBC Compound Libraries: Firefly Luciferase Signal; AID 1745856, 2022; Potency, µM (doses to about 57.5 µM), without a hit: at the top dose signal change, negative = less light; HEK cells with a luciferase reporter of 2A StopGo recoding; 120,000 tested, 0.23% active; active = well fitted falling curve with a large enough effect; inconclusive = small, poorly fitted or top-dose-only effect; inactive = no such curve, though single readings can be large or run the other way; further: nearly all actives have a fitted effect of over 60% in size; overnight with compound
Starred values were filed as active, the others as inactive; ? = inconclusive; & = joins results of further samples; [ ] = another dose, or the depositor's remark. On the % scale 0 is the no-effect control and ±100 the full control effect; potency means the concentration at half of the fitted maximal effect.

SMILES	StopGo RLuc	2A firefly
COc1ccc(N2CC(NC(=O)c3cc4ccccc4o3)CC2=O)cc1OC (centres undefined)	-9.3%	-1.1%
C=CCOc1ccc(C(=O)Nc2ccc(C)cc2C)cc1	-2.3%	221.0%[activator]
CCCNC1CCc2ccccc2C1 (centres undefined)	-5.0%	-16.2%
Cc1ccc(N2C(=O)N(CC(=O)C(C)(C)C)c3ccccc3S2(=O)=O)cc1C	3.2%	-16.9%
Cc1nn(CC(=O)NCc2ccccc2Cl)c(=O)c2nn(-c3ccccc3)c(C)c12	7.4%	20.3%
CCN(C(=O)COc1ccc2ccc(=O)oc2c1)C1CCCCC1	24.8%	62.3%[activator]
CN(C)S(=O)(=O)c1ccc(-c2nc(C#N)c(N3CCCC3)o2)cc1	10.6%	-0.8%
COCc1cccc(C(=O)NC(C)c2cccc(OC(F)F)c2)c1 (centres undefined)	7.0%	3.8%
CCCN1CCN(CC2=C(C(=O)OC)C(c3ccc(C)cc3)NC(=O)N2)CC1 (centres undefined)	-6.6%	-3.9%
COc1ccc2nc(/C=C/c3ccc(OC)c(OC)c3OC)sc2c1	22.7%	66.3%[activator]
N#Cc1nc(-c2ccccc2)oc1N1CCN(C(=O)c2cccs2)CC1	-0.1%	22.4%
CC(=O)c1cccc(NC(=O)Cn2c(C)c3cnn(-c4ccccc4)c(=O)c3c2C)c1	-4.4%	8.2%
COc1ccc(CCNc2ncnc3onc(C)c23)c(OC)c1	0.891µM*	?
COc1ccc(C(CNC(=O)c2ccc(F)cc2)N2CCCC2)cc1 (centres undefined)	-20.0%	3.5%
CCOc1ccccc1NC(=O)CSc1nccn1-c1ccc(Cl)cc1	6.4%	-11.2%
Cc1oc2c(c(C)cc3oc(=O)c(CC(=O)NCc4ccc(F)cc4)c(C)c32)c1C	1.6%	-16.4%
CCCSc1ncc(Cl)c(C(=O)Nc2ccccc2C)n1	-12.1%	-9.9%
Cc1ccc(NC(=O)CN(C)S(=O)(=O)c2ccc3c(c2)n(C)c(=O)c(=O)n3C)cc1F	7.1%	13.8%
CN(CCCc1ccccc1)CC(=O)NC(N)=O	1.3%	9.6%
CCOC(=O)c1ccccc1NC(=O)CSc1nccn1Cc1ccco1	-0.2%	-17.9%
COc1ccc(CCNC(=O)c2ccc(-n3c(C)cc4c3CCC(C)C4)cc2)cc1OC (centres undefined)	-11.3%	-1.2%
CCn1c(SCC(=O)c2ccccc2)nnc1-c1cccc(Cl)c1	19.9%	0.0%
CC(NC(=O)CC12CC3CC(CC(C3)C1)C2)c1ccncc1 (centres undefined)	3.8%	82.9%[activator]
O=C(O)c1cc(Cl)c(Cl)cc1C(=O)O	-0.6%	-7.2%
N#Cc1nc(-c2ccccc2F)oc1NCc1ccccc1	104.1%[activator]	104.7%[activator]
The list goes on:
SMILES	StopGo RLuc	2A firefly
CCOc1ccc(NC(=O)C2CCCN(S(=O)(=O)c3c(C)noc3/C=C/N(C)C)C2)cc1 (centres undefined)	11.1%	-2.2%
Cc1ccccc1Oc1nc(-c2ccccn2)nc2ccccc12	?	-2.9%
O=C(CSc1ncnc2nc[nH]c12)NCc1ccc(Cl)cc1	1.1%	38.3%[activator]
O=C1CSc2ccc(C(=O)NCCc3ccccc3)cc2N1	0.0%	59.0%[activator]
Cc1cc(C)c(NC(=O)Cn2nnc(-c3nc(-c4ccc(F)cc4)no3)c2N)c(C)c1	-2.2%	0.6%
CCC(C)(NC(=O)Cc1c[nH]c2ccccc12)C(=O)NC1CCCC1 (centres undefined)	4.7%	-1.7%
COc1ccc(N2CC(NC(=O)C3CC3)CC2=O)cc1 (centres undefined)	5.6%&-12.0%	11.7%&-19.1%
Cc1cc(C)n(-c2nc3c(c(=O)n(CC(N)=O)c(=O)n3C)n2Cc2ccccc2F)n1	-16.6%	-4.4%
Cc1cc(C(=O)CSc2nnnn2C2CC2)c(C)n1Cc1ccco1	-24.8%	-51.7%
CC(C)c1nnc(NC(=O)c2nn(C(C)C)c(=O)c3ccccc23)s1	14.3%	-4.9%
COc1ccc(C(=O)Oc2cccc3c(OC)ccc(C=O)c23)cc1OC	8.1%	0.0%
Cc1ccc(-c2[nH]c3ccccc3c2SCCNC(=O)c2ccc(S(=O)(=O)N3CCOCC3)cc2)cc1	8.8%	-8.8%
CCOc1ccc(/C=C/C(=O)c2cccc(Br)c2)cc1OC	-5.7%	16.8%
CCOc1ccc(C(=O)NCCn2cc(SCC(=O)Nc3ccc4c(c3)OCCO4)c3ccccc32)cc1	52.6%[activator]	33.0%[activator]
O=C(NCc1ccccc1)NC(NC(=O)c1cccnc1)(C(F)(F)F)C(F)(F)F	14.7%	9.2%
COc1ccc(-c2nn(C)c3sc(C(=O)NCCN(C)C)cc23)cc1OC	-12.4%	-21.9%
CCN(Cc1ccccc1)C(=S)Nc1ccc(C)cc1C	51.6%[activator]	6.2%
Cc1c(Cl)cccc1NC(=O)CCOc1ccccc1	1.4%	7.1%
CCc1cccc(NC(=O)CCC2CCCCC2)c1	35.6%[activator]	20.8%
CCc1ccc(C2=CC(c3c(F)cccc3Cl)n3c(nc4ccccc43)N2)cc1 (centres undefined)	-8.0%	75.2%[activator]
CCCC(OC(=O)c1cc(C)nc2ccccc12)C(=O)Nc1cc(C)on1 (centres undefined)	13.6%	18.4%
Cc1ccc(NC(=O)CCn2c(=O)oc3cc(S(=O)(=O)N4CCCC4)ccc32)cc1C(F)(F)F	-1.5%	2.2%
CC(=O)OCCNC(=O)Cn1cnc2c1c(=O)n(C)c(=O)n2C	-1.7%	2.4%
CCCCN(C)CCCNC(=O)Cn1ncc2c3ccccc3n(Cc3ccccc3F)c2c1=O	-9.8%	24.0%
Cc1cc(C)cc(NC(=O)C2CC(=O)N(c3ccccc3)C2)c1 (centres undefined)	-11.0%	-12.6%

Structural class, the entries above containing an aryl thioether with sulfur outside any ring (eight)
SMILES	StopGo RLuc	2A firefly
CCOc1ccccc1NC(=O)CSc1nccn1-c1ccc(Cl)cc1	6.4%	-11.2%
CCCSc1ncc(Cl)c(C(=O)Nc2ccccc2C)n1	-12.1%	-9.9%
CCOC(=O)c1ccccc1NC(=O)CSc1nccn1Cc1ccco1	-0.2%	-17.9%
CCn1c(SCC(=O)c2ccccc2)nnc1-c1cccc(Cl)c1	19.9%	0.0%
O=C(CSc1ncnc2nc[nH]c12)NCc1ccc(Cl)cc1	1.1%	38.3%[activator]
Cc1cc(C(=O)CSc2nnnn2C2CC2)c(C)n1Cc1ccco1	-24.8%	-51.7%
Cc1ccc(-c2[nH]c3ccccc3c2SCCNC(=O)c2ccc(S(=O)(=O)N3CCOCC3)cc2)cc1	8.8%	-8.8%
CCOc1ccc(C(=O)NCCn2cc(SCC(=O)Nc3ccc4c(c3)OCCO4)c3ccccc32)cc1	52.6%[activator]	33.0%[activator]

More structures:
SMILES	StopGo RLuc	2A firefly
S=C(NCCC1=CCCCC1)Nc1ccc(Br)cc1	-17.5%	0.0%
O=c1[nH]c2cc3c(cc2c(=O)n1CCCc1nc(-c2ccc(C(F)(F)F)cc2)no1)OCO3	-6.3%	-3.6%
COC(=O)C1CN(C2CCCC2)CCS(=O)(=O)N1Cc1cn(Cc2ccc(Cl)cc2)nn1 (centres undefined)	-20.6%	-6.3%
COc1ccc(OC)c(NC(=O)CCn2cccn2)c1	4.9%	-11.2%
CC(C)C(C)(C#N)NC(=O)CC1CC2CCC1C2 (centres undefined)	0.0%	-4.3%
COCCN(CC(N)=O)S(=O)(=O)c1ccc(F)cc1	-4.2%	-7.5%
COc1ccc(OC2CCN(S(=O)(=O)c3ccc(OC)cc3)CC2)cc1	?	?
NC(=O)C1CCN(C(=O)Cn2c(-c3cccs3)cc3ccccc32)CC1	1.0%	-2.3%
CCOC(=O)c1ccc(CN(Cc2ccc(OC)cc2)S(=O)(=O)c2cccc(C(F)(F)F)c2)cc1	5.0%	0.5%
O=C(Nc1ncc([N+](=O)[O-])s1)c1cccs1	?	-7.0%
COc1ccc(-c2nc(SCC(=O)N3CCN(c4ccc(F)cc4)CC3)n[nH]2)cc1	-14.3%	-8.7%
O=C(NCCc1ccccc1)c1cc(-c2ccccc2)nc2n[nH]c(-c3ccccc3)c12	-9.2%	72.2%[activator]
Cc1ccc(C2C3=C(COC3=O)Nc3n[nH]c(C)c32)cc1 (centres undefined)	-4.2%	-6.0%
CCOc1c(Cl)cc(/C=C(/C#N)c2nc3ccc(C)cc3[nH]2)cc1Cl	40.3%	0.0%
CCc1ccc(-n2c(=O)c3c4c(sc3n(CC(=O)c3ccc(F)cc3)c2=O)CCC4)cc1	-3.6%	-23.7%
CCCCn1c(=O)c2c(nc(-n3nc(C)c(C)c3C)n2CCOCC)n(C)c1=O	4.2%	-7.1%
COc1ccc(-c2c3c(=O)n(C)c(=O)n(C)c3c3n2C(C)(C)COC3c2cccc(OC)c2)cc1 (centres undefined)	3.3%	1.2%
Cc1nc2c(C)cccc2c(Cl)c1CC=C(Cl)Cl	3.9%	3.5%
COc1ccc(Nc2nc(N)c(C(=O)c3cc(C)ccc3C)s2)cc1Cl	52.7%[activator]	5.2%
O=C(c1cc(-c2ccccc2)on1)N1CCOCC1	0.0%	68.7%[activator]
CC(CC(=O)Nc1ccc(Cl)cc1)n1ccnc1 (centres undefined)	-8.2%	7.8%
COc1ccc(NC(=O)c2nnn(Cc3ccc(Cl)cc3)c2N)c(OC)c1	27.6%	14.8%
CC(Sc1nc(C(F)(F)F)nc2ccccc12)C(=O)NC(C)(C)C (centres undefined)	-2.0%	3.1%
O=C(NC1CCCC1)C1CC(c2ccccc2F)=NO1 (centres undefined)	5.5%	142.9%[activator]
O=C1CSc2ccc(C(=O)NC3CC3)cc2N1	-4.9%[1.06 µM]	-8.8%
Continued.
SMILES	StopGo RLuc	2A firefly
CCCc1nnc(NC(=O)CCS(=O)(=O)Cc2ccccc2)s1	-10.0%	-8.8%
CCCNCc1ccsc1	3.3%	-4.7%
COc1ccc(C(=O)CCC(=O)OCC(=O)c2ccc(Cl)c(Cl)c2)cc1	7.2%	0.8%
CCOc1ccc(NS(=O)(=O)c2ccc3c(c2)CCCN3C(=O)C2CCC2)cc1	0.0%	-23.3%
Cc1ccc2oc(-c3cc(NC(=O)c4oc5ccccc5c4C)ccc3Cl)nc2c1	1.3%	14.9%
Cc1nn(-c2ccc(F)cc2)c2c1C(c1cccnc1)SCC(=O)N2 (centres undefined)	-2.5%	4.7%
Cc1ccc(-c2noc(-c3ccc(N4CCOCC4)c([N+](=O)[O-])c3)n2)cc1	-2.7%	9.4%
N#CCN(Cc1ccccc1)Cc1cc(Cl)c2c(c1)OCCCO2	13.2%	84.3%[activator]
CCOC(=O)c1cccc(Nc2ccc3cc(S(=O)(=O)N4CCCCC4)ccc3n2)c1	49.8%[activator]	11.6%
Fc1ccccc1-c1nc(-c2cccc(Br)c2)no1	9.1%	0.0%
O=c1cc(O)c2sc3nc(-c4cccs4)cc(C(F)(F)F)c3c2[nH]1	6.6%	0.3%
CC(C)Oc1ccc2c(=O)c(-c3ccc(F)cc3)c(C(F)(F)F)oc2c1	-1.7%	29.9%
O=c1oc2ccccc2c(NCc2ccccc2)c1NS(=O)(=O)c1ccc(F)cc1F	14.3%	-14.8%
Cn1c(SCC(=O)N2CCc3ccccc32)nnc1-c1cccc(NC(=O)c2ccccc2F)c1	21.0%	8.5%
Cn1c(=O)[nH]c(=O)c2c1nc(N1CCN(Cc3ccc(Cl)cc3)CC1)n2CCCc1ccccc1	-1.9%	-0.6%
CCCC(C(=O)Nc1nc2ccccc2s1)c1ccccc1 (centres undefined)	-2.6%	27.5%
O=c1c2ccccc2nc(SCc2nnc(-c3ccccc3Br)o2)n1Cc1ccco1	0.4%	-3.5%
N#C/C(=C\c1ccc(-c2ccccc2F)o1)c1nc2ccccc2[nH]1	98.7%[activator]	116.4%[activator]
Cc1cccc(-c2nnc(SCC(=O)Nc3ccc4ccccc4c3)n2N)c1	-2.3%	5.4%
O=C(c1cn(-c2ccccc2)nc1-c1cccnc1)N1CCN(c2ccc(F)cc2)CC1	2.1%	16.6%
COc1cc(CC(=O)NC2CCC(C)CC2)ccc1C (centres undefined)	-6.3%[1.06 µM]	0.0%
Cc1cc(C)cc(C2CC(C)(O)CC(c3cc(C)cc(C)c3)S2)c1 (centres undefined)	12.3%	2.5%
O=C(COc1ccccc1Cl)Nc1nc(-c2ccc(Br)o2)ns1	-11.6%	64.3%[activator]
Cc1nc2nc(C(F)(F)F)[nH]n2c(=O)c1Cc1ccccc1	?	-2.6%&-9.2%
CC(C)CCNC(=O)CSc1nc2cc([N+](=O)[O-])ccc2o1	2.1%	22.3%
CC(C)C(=O)Nc1ccc(NC(=O)Nc2ccc(Cl)cc2)cc1	5.4%	9.6%
CCc1ccc(CN(Cc2ccco2)C(=O)c2ccc(OC)cc2)cc1	82.7%[activator]	-5.1%
Cc1nnc(N2CCCC(C(=O)NCCc3ccccc3)C2)c2nn(-c3ccccc3)c(C)c12 (centres undefined)	37.0%&38.0%[activator]	47.4%&16.5%[activator]
CCOc1ccc(NC(=O)NC(CC)Cn2nnc3ccccc3c2=O)cc1 (centres undefined)	?	?
COC(=O)CSc1nc2sc3c(c2c(=O)n1-c1ccc(OC)cc1)CC(C(C)C)OC3 (centres undefined)	-6.6%	-5.1%

Four records picked at random from the list so far:
SMILES	StopGo RLuc	2A firefly
Cc1nc2nc(C(F)(F)F)[nH]n2c(=O)c1Cc1ccccc1	?	-2.6%&-9.2%
O=C(c1cn(-c2ccccc2)nc1-c1cccnc1)N1CCN(c2ccc(F)cc2)CC1	2.1%	16.6%
COC(=O)CSc1nc2sc3c(c2c(=O)n1-c1ccc(OC)cc1)CC(C(C)C)OC3 (centres undefined)	-6.6%	-5.1%
Cc1nnc(N2CCCC(C(=O)NCCc3ccccc3)C2)c2nn(-c3ccccc3)c(C)c12 (centres undefined)	37.0%&38.0%[activator]	47.4%&16.5%[activator]

Screening data (PubChem)

This is a subset, so the mix of outcomes need not match the whole.
